Source: PubChem
Marburg entry inh – blocks Marburg virus binding to or entry into cells; Marburg virus pseudotyped entry inhibition, cell reporter; control for the full effect not named in the record; about a third of the inactives were read at about 46 µM; Potency, µM (top dose mostly 37.8 µM), inactives show at the highest dose activity change, negative = inhibition, actives largely listed as inhibitors; 300,000 tested, 1.8% active; AID 540276; active = well fitted inhibition curve with a large enough effect; inconclusive = small, poorly fitted or top-dose-only effect, or effect the other way; inactive = flat fitted curve, though single readings scatter; tested in HEK293 cells; about a fifth of its hits are not listed in these tables; note: % is set by controls: 0 for no effect and ±100 for the full control effect; luciferase read-out
Cruzain inh Det – inhibitors of Trypanosoma cruzi cruzain with detergent. Potency, µM, without a hit: max response, negative = inhibition, actives largely listed as inhibitors. AID 1478. 200,000 tested, 0.43% active. P25779. purified cruzain, Z-FR-AMC fluorescence, 0.01% Triton;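 note: plate controls were neutral wells for no effect and buffer without enzyme for full effect; nearly all actives have a fitted effect of over 40% in size; top concentration of the series not given in the record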
Target sequence (P25779 123-467 limits assumed): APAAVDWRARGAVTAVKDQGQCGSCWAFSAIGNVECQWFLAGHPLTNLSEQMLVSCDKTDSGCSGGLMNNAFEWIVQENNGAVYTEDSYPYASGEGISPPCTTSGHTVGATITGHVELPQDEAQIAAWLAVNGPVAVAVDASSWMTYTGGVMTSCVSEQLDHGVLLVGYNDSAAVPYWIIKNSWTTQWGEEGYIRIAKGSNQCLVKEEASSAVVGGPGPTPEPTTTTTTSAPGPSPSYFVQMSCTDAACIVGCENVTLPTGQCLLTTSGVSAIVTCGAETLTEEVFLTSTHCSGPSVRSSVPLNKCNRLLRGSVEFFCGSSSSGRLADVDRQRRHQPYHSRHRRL
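Enzyme 1.5 nM, Z-FR-AMC 2 uM, NaOAc 100 mM pH 5.5, DTT 5 mM, Triton X-100 0.01%; 15 min RT compound preincubation; kinetic ex360/em450, 60 s delta.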
2A StopGo – FMDV 2A StopGo reporter, luciferase signal; human cells with a luciferase reporter of 2A StopGo recoding; control for the full effect not named in the record; 410,000 tested, 1.2% active; Potency, µM (top dose mostly 57.9 µM), without a hit: top-dose signal change, negative = less light; active = well fitted falling curve with a large enough effect; inconclusive = small, poorly fitted or top-dose-only effect; inactive = no such curve, though single readings can be large or run the other way; tested in HEK293T cells; note: % is set by controls: 0 for no effect and ±100 for the full control effect; nearly all actives have a fitted effect of over 45% in size; luciferase light after 4 h
SARS PLpro yeast – blocks SARS-CoV papain-like protease in a yeast assay; S. cerevisiae expressing SARS-CoV PLpro, growth rescue; control for the full effect not named in the record; Potency, µM (doses to about 32.9 µM), for inactives: top-dose activity, positive = growth rescue; 330,000 tested, 0.19% active; AID 485353; active means well fitted rising curve with a large enough effect; inconclusive means small, poorly fitted or top-dose-only effect; inactive means no such curve, though single readings can be large or run the other way; note: 0% is about no effect; nearly all actives have a fitted effect of over 55% in size; growth read by luminescence after 48 h
NS1 function inh – influenza NS1 inhibition; S. cerevisiae slowed by influenza A NS1, growth recovery by OD600; Potency, µM (titrated, usually from 46.1 µM), for the others: at the highest dose activity, positive = more growth; 270,000 tested, 0.4% active; active means well fitted rising curve with a large enough effect; inconclusive means small, poorly fitted or top-dose-only effect; inactive means no such curve, though single readings can be large or run the other way; note: nearly all actives have a fitted effect of over 50% in size
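Growth recovery, yeast-based: influenza A NS1 expressed in S. cerevisiae causes slow growth, and suppressors are detected by OD600. The parent strain without NS1 is used as positive control.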
RE007 growth inh – less growth of the S. pombe RE007 Vpr strain. Potency, µM (highest dose often 92.2 µM), without a hit: top-dose activity change, negative = less growth. 360,000 tested, 0.21% active. S. pombe RE007 Vpr strain, BacTiter-Glo ATP luminescence, 24 h; control for the full effect not named in the record. AID 651644; active = well fitted falling curve with a large enough effect; inconclusive = small, poorly fitted or top-dose-only effect; inactive = no such curve, though single readings can be large or run the other way;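 note: % is set by controls: 0 for no effect and ±100 for the full control effect; nearly all actives have a fitted effect of over 50% in size; the assay follows cell death caused by Vpr and the record does not say whether a fall means rescue or toxicity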
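Fission yeast RE007 carrying one integrated HIV-1 vpr copy, seeded at OD 0.01 in PMG+AL medium with 23 nL pinned compound. Grown 24 h at 30 degrees; viability read by BacTiter-Glo luminescence after 5 min.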
Cruzain noTriton – inhibitors of Trypanosoma cruzi cruzain without detergent | Potency, µM, inactives show max response, negative = inhibition, actives largely listed as inhibitors | P25779 | purified cruzain, Z-FR-AMC fluorescence, no detergent | AID 1476 | 200,000 tested, 2.3% active;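 note: plate controls were enzyme without inhibitor for no effect and buffer without enzyme for full effect; nearly all actives have a fitted effect of over 40% in size; top concentration of the series not given in the record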
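Detergent-free condition (0.00005% Triton X-100) in acetate buffer pH 5.5 with DTT. 1.5 nM enzyme and compound were pre-mixed 15 min, then 2 uM Z-FR-AMC substrate added; reaction progress from fluorescence change between first and third reads (60 s).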
LASV entry inh – inhibitors of Lassa virus binding or cell entry | Lassa virus pseudotype entry inhibition, cell reporter; control for the full effect not named in the record | 300,000 tested, 1.2% active | Potency, µM (series often up to 37.9 µM), for inactives: at the highest dose activity change, negative = inhibition, actives largely listed as inhibitors | AID 540256; active means well fitted inhibition curve with a large enough effect; inconclusive means small, poorly fitted or top-dose-only effect, or effect the other way; inactive means flat fitted curve, though single readings scatter; tested in HEK293 cells; note: % is set by controls: 0 for no effect and ±100 for the full control effect; nearly all actives have a fitted effect of over 50% in size; luciferase read-out
* hit, by the source's call; u = inconclusive; x = no result given; & = joins results of further samples; [ ] = remark or other dose. Unless noted, calls come from the whole dose curve; as a rule, active = well fitted curve in the direction sought with a large enough effect; inconclusive = small, poorly fitted or top-dose-only effect, or another doubt; inactive = no such curve, though single readings can be large; an effect the other way counts as inactive or inconclusive. Potency is the fitted concentration of half-maximal effect. Hits appear at their usual frequency; any-hit rate near 4.5%.

Every second line gives: NS1 function inh | LASV entry inh | Cruzain inh Det | Marburg entry inh | 2A StopGo | SARS PLpro yeast | RE007 growth inh | Cruzain noTriton
- O=C(C1CCN(S(=O)(=O)Cc2ccccc2)CC1)N1CCN(c2ncccn2)CC1
 : 8% | u | 3.2% | 6%&-12% | -18% | 5% | -13% | 13%
- CCOC(=O)c1c(C)[nH]c(C)c1S(=O)(=O)N1CCC(C(=O)Nc2ccccc2CC)CC1
 : x | -6%[46.1 µM] | 0.7% | x | 3% | x | x | 9%
- COc1ccc(N2C(=O)CN(Cc3cc(OC)c(OC)c(OC)c3)C2=S)cc1
 : x | u | x | u | u | -1% | 3% | x
- Cc1cc(C(=O)N/N=C/C=C/c2ccc(Br)cc2)n[nH]1
 : 13% | x | x | x | -14% | -1% | -1% | x
- COc1cccc(C2=Nc3cccc4cccc(c34)N2)c1
 : -4% | 36% | -7.3% | -6% | -5% | -27% | -17% | 16µM*
- O=C(Nc1ccccc1)N(CCN1CCOCC1)Cc1cccc(Cl)c1
 : -16% | 6% | 0.6% | -7% | 5% | -6% | 10% | 2%
- CCCCc1cc(=O)oc2cc(OCC(=O)NCc3ccccn3)c(Cl)cc12
 : 2% | x | x | x | 2% | 2% | 12% | x
- CCOC(=O)c1ccc(NC(=O)c2c(NC(=O)CCC(=O)O)sc3c2CCCCC3)cc1
 : 7% | -13%[46.1 µM] | x | u | -5% | 0% | -13% | x
- COc1ccccc1C1CC(c2cccs2)=NN1C(=O)CCC(=O)O (configuration not stated)
 : 4% | -5%[46.1 µM] | x | u | -2% | -7% | -15% | x
- Cc1noc(C)c1CSCC(=O)N(CCC(C)C)c1c(N)n(Cc2ccccc2)c(=O)[nH]c1=O
 : 12% | 19% | x | -5% | -2% | -1% | -3% | x
- CN(C)/C=N/c1cc(=O)n(C)c(=O)n1CC1CC1
 : 11% | 9% | -3.2%&-3.7% | -20% | -16% | 5% | -2% | -1%&-3%
- O=C(CN1C(=O)C2(OCCO2)c2ccccc21)c1ccc(F)cc1
 : -1% | -3% | 1.9% | 1% | 13% | -3% | 16% | -9%
- CC(=O)Nc1nnc(S(=O)(=O)N2CCN(c3ccc(Cl)cc3[N+](=O)[O-])CC2)s1
 : 4% | x | x | x | -20% | 0% | -4% | x
- O=C(NC1CCCC1)C(c1c(F)cccc1Cl)N(C(=O)c1csnn1)C1CC1 (configuration not stated)
 : 0% | -7% | x | -8%[46.1 µM] | 4% | -6% | 5% | x
- N/C(Cc1cccc2ccccc12)=N\OC(=O)c1cccs1
 : 6% | 3% | -4.1% | 4% | -14% | -16% | -2% | u
- Cc1nnc(NC(=O)CCC(=O)N2CCN(CCOc3cccc4ccccc34)CC2)s1
 : -8% | -23% | x | -11% | u | 2% | 3% | x
- CN1C(=S)SC(N(O)C=C2C=CC(=O)C=C2)C1(C)C (configuration not stated)
 : 4% | 8% | -8.8% | 26% | -14% | 0% | -4% | -1%
- Cc1nn(CC(=O)NCC2CCCO2)c(=O)c2ccccc12 (configuration not stated)
 : -8% | -29% | 4.7% | 16%[46.1 µM] | -22% | 3% | -19% | -3%
- O=C(NCCS(=O)(=O)N1CCN(c2cccc(Cl)c2)CC1)c1cc(=O)c2ccccc2o1
 : -7% | 8%[46.1 µM] | -3.7% | x | 1%&-1% | 2% | -15% | -1%
- COc1ccccc1CNc1cc(-c2ccccc2)ccc1OC
 : -1% | 1% | -5.9% | -24% | -17% | -3% | 1% | 4%
- COC(=O)c1c(-c2ccccc2)nn(-c2ccccc2)c1C(=O)OC
 : 4% | x | x | x | -13% | 3% | -19% | x
- Cc1ccc(-c2noc(C3CCN(S(C)(=O)=O)CC3)n2)o1
 : -7% | -3% | -4.5% | 7% | 52%[activator] | 5% | 19% | -7%
- O=C1NC(=Nc2ccccc2)SC1Cc1cccc(Cl)c1Cl (configuration not stated)
 : 4% | u | -1.1% | 21% | -12% | -12% | 1% | -3%
- COC(=O)c1ccsc1NC(=O)CCS(=O)(=O)c1ccc(Cl)cc1
 : x | 2% | x | -14% | -8% | x | -2% | x
- CCCOc1ccc(C2c3c(oc4ccccc4c3=O)C(=O)N2CCN(CC)CC)cc1OC (configuration not stated)
 : 3% | 16% | -2.7% | u | 1% | 0% | -24% | -3%
- Cc1c(NS(=O)(=O)c2cccc(C(=O)NCc3ccc(Cl)cc3)c2)c(=O)n(-c2ccccc2)n1C
 : 5% | 28% | 1.6% | -2% | 0% | 0% | 14% | -8%
- Cc1c(C(=O)OCCOc2ccccc2)[nH]c2c1C(=O)CC(c1ccccc1Cl)C2 (configuration not stated)
 : x | -12%[46.1 µM] | -2.4% | u | u | x | x | 5%
- Cc1cc(C)c(C)c(OCC(=O)NCCN(C)C)c1
 : 8% | -6% | 2.5% | 6% | u | 10% | 6% | -2%
- CC1CN(C(=O)c2nn(C)cc2[N+](=O)[O-])CC(C)O1 (configuration not stated)
 : 7% | -1% | 5.0% | 0% | -18% | 6% | 7% | -3%
- CCc1ccc(OCCCSc2nc(-c3ccc(C(C)(C)C)cc3)nc3cc(=O)[nH]n23)cc1
 : x | 1%[46.1 µM] | -5.8% | x | -18% | x | x | 6.3µM*
- O=C(CCS(=O)(=O)c1cccc2nonc12)Nc1ccc(Br)cc1
 : 13% | 1% | -3.5% | 13%&13%[46.1 µM] | 15%&26% | 4% | 1% | 0%
- CCc1ccccc1NC(=O)CSc1nc2c(oc3ccccc32)c(=O)n1C
 : x | x | -1.3% | u | 2% | x | x | 0%
- COc1ccc(NS(=O)(=O)c2cc(NC(=O)c3cncc(Br)c3)ccc2OC)cc1
 : x | -14% | x | -16% | 19% | 1% | 3% | x
- CCC[N+]1(CC#CC(O)(c2ccccc2)C2CCCCC2)CCCCC1 (configuration not stated)
 : 2% | 10% | x | 7% | -11% | 3% | -8% | x
- C=CCn1c(SCC(=O)NC2CCCCC2)nnc1-c1cccnc1
 : 17% | -1% | x | -3% | -22% | 3% | 10% | x
- CCn1cc(C(=O)OCC(=O)c2cc(C)n(-c3ccccc3)c2C)c(=O)c2ccc(C)nc21
 : 14% | 0% | -6.1% | u | u | -14% | -4% | -7%
- Cc1cccc(-c2noc(CCC(=O)NCc3ccccc3)n2)c1
 : -24% | u | -3.6% | -5% | 18% | -5% | 0% | -1%
- Cc1ccc2scc(N3CCN(c4cccc(C(F)(F)F)c4)CC3)c(=O)c2c1
 : x | u | -2.7% | x | 19% | x | x | -1%
- CCCCn1c(SCC(=O)NCCCOC)nc2c(sc3ccccc32)c1=O
 : x | -1%[46.1 µM] | 1.8% | x | -1% | x | x | 6%
- Cc1c(C(=O)Nc2c(C)n(C)n(-c3ccccc3)c2=O)oc2ccc(Cl)cc12
 : -3% | -18%[46.1 µM] | x | -19%[46.1 µM] | -27% | 2% | 8% | x
- Fc1cccc(CN2CCc3nc(Nc4ccc5c(c4)OCCO5)ncc3C2)c1F
 : x | 0%[46.1 µM] | -8.3% | x | 2% | x | x | -8%
- COc1ccc(C(=O)/C=C/C(=O)N(CC(=O)NC2CCCCC2)Cc2ccccc2OC)c(O)c1
 : 1% | u | x | u | 7.9µM* | -1% | -3% | x
- Cc1occc1-c1nc(-c2ccncc2)no1
 : 0% | 39%[14.3 µM] | -3.3% | 13% | 65%[activator] | 20% | -3% | 12%
- CCCN(CCC)c1nc2c(C)cccn2c(=O)c1/C=C1/SC(=S)N(Cc2ccco2)C1=O
 : -4% | -3%[46.1 µM] | x | 14%[46.1 µM] | -2% | 0% | 8% | x
- Cc1ccc(CN2CCN(Cc3cnc(C)s3)CC2CCO)cc1 (configuration not stated)
 : 1% | 4% | x | -7%[46.1 µM] | 1% | -1% | -7% | x
- CCc1ccc(-n2c(=O)c3sc4ccccc4c3n(CC(=O)NC3CCCCC3)c2=O)cc1
 : x | 8%[46.1 µM] | 1.2% | 13%[46.1 µM] | 9% | x | x | -4%
- Nc1nc2c3ccccc3nc(Cc3ccccc3)n2n1
 : -12% | -22% | -1.1% | 10% | x | 1% | 10% | -4%
- Cc1ccc(-c2nc3ccccn3c2Nc2ccc3c(c2)OCCO3)s1
 : x | -1%[46.1 µM] | -19% | u | 76%[activator] | x | x | u
- CCN=C(Nc1ccc2c(c1)OCO2)SC1CC(=O)N(c2ccc(OC)cc2)C1=O (configuration not stated)
 : 9% | -13% | -7.0% | u | u | 11% | 20% | 26%
- Cc1cc(C(=O)Nc2ccc(N3CCOCC3)cc2)c2ccccc2n1
 : -10% | -10% | -1.0% | 8% | 3% | -2% | 32% | -15%
- O=C(CSc1n[nH]c(=O)[nH]c1=O)c1ccccc1[N+](=O)[O-]
 : 1% | x | x | x | -8% | 1% | -5% | x
- CCOC(=O)c1c(CS(=O)(=O)c2ccccc2)n(C)c2cc(Br)c(O)c(CN(C)C)c12
 : 20% | -30%[46.1 µM] | x | 6%[46.1 µM] | -23% | 0% | -5% | x
- O=c1cc(N2CCCCC2)c(-c2ccccc2)nn1Cc1ccccc1Cl
 : -69% | u | -4.0% | u | 40µM* | -8% | 29% | -2%
- O=C(O)c1nc2nc(Cl)c(Cl)nc2[nH]1
 : -3%&-6% | x | -0.4% | x | 1% | -1% | x | 1%
- CCOC(=O)c1c(NC(=O)COc2ccc(Br)cc2)sc(C(C)=O)c1C
 : x | 13%[46.1 µM] | -1.6% | x | -24% | x | x | 4%
- COc1ccc(Cn2nnnc2CN(Cc2cc3ccc(C)cc3[nH]c2=O)C2CCCC2)cc1
 : -36% | u | 0.5% | u | -10% | 2% | -11% | 1%
- O=C(NCCOc1ccccc1F)C1CC(=O)N(Cc2ccccc2)C1 (configuration not stated)
 : x | 9% | x | u | 22% | -12% | -8% | x
- CC1(C)CC(=O)C2=C(C1)NC(=S)C(C#N)C21CCCCC1 (configuration not stated)
 : -13% | x | x | x | -19% | 0% | -13% | x
